TRPML1 blocker: qHTS for Inhibitors of the Human Mucolipin Transient Receptor Potential 1 (TRPML1) | TRPML1-inducible cells, Ca2+ dye fluorescence, FDSS; hits give low values; inhibition of EC80 agonist-evoked calcium signal | activity change, negative = inhibition, % (concentration not given with the values) | actives 0.02% (n = 390,000); in the data active means activity change below about -50%; inconclusive means about -30% to -50%; inactive means above about -30%;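 note: stimulus is agonist 54-4 at its EC80 concentration; % is set by controls: 0 for no effect and ±100 for the full control effect; compound concentration not given in the record; the text of the record puts the active cut at -80%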
Target sequence (Q9GZU1 whole entry, looked up): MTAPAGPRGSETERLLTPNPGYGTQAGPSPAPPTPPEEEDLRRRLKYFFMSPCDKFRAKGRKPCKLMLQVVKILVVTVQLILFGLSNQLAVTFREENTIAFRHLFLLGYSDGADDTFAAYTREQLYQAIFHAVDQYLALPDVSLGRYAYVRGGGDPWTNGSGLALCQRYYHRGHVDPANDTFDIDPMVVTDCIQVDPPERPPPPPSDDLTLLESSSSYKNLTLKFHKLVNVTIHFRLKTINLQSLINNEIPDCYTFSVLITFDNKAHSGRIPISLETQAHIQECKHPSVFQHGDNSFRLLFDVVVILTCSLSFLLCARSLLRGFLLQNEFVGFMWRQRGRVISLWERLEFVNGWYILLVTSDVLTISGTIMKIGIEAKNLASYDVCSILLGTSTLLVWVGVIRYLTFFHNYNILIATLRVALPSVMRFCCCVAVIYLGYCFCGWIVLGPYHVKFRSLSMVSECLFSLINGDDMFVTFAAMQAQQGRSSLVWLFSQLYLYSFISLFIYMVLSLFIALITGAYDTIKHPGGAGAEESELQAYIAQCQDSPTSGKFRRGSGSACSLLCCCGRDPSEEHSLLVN
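TRPML1-DL cells, Tet-induced overnight (~16 h, 37 °C) at 1,500 cells/well, were loaded with Ca8 no-wash dye plus quencher for 45-90 min at room temperature. Compounds were pinned during FDSS kinetic reading; agonist 54-4 at EC80 (4 uM final) then added.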
CtBP-E1A blk: qHTS Assay for Inhibitors of the CtBP/E1A Interaction. CtBP / adenovirus E1A interaction (AlphaScreen). AlphaScreen GST-E1A/His-CtBP binding, 1536-well; hits give low values; control for the full effect not named in the record. activity change, % (test concentration not listed). actives 0.49% (n = 340,000). AID 651724, 2012; in the data active means activity change below about -65%; inconclusive means about -30% to -65%; inactive means above about -30%; note: % is set by controls: 0 for no effect and ±100 for the full control effect; compound concentration not given in the record
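Steps: dispense buffer (Tris pH 8.0, NaCl 300 mM, TCEP 1 mM, BSA, Tween 20); add 5X protein mix (GST-E1A, His-CtBP, 125 nM each); pin 23 nL compound; 2 h at 37 °C, dark; add 5X beads (50 ug/mL); 1 h; read.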
Six1-Eya2 inh: qHTS Assay for Inhibitors of the Six1/Eya2 Interaction | AlphaScreen GST-Six1/His-Eya2 binding, biochemical; hits give low values; control for the full effect not named in the record | activity change, % (test concentration not listed) | actives 0.56% (n = 360,000) | AID 651725, 2012; in the data active = activity change below about -65%; inconclusive = about -30% to -65%; inactive = above about -30%; note: % is set by controls: 0 for no effect and ±100 for the full control effect; compound concentration not given in the record
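Six1/Eya2 binding was read as AlphaScreen signal after compounds were pinned into GST-Six1 plus His-tagged Eya2 (5X stock 250/500 nM) in pH 8.0 Tris/NaCl/TCEP buffer, beads added, then incubated 1 h, 37 C, dark.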
TRPV1 potentiator: HTS Assay for Compounds that Act as Potentiators of the Vanilloid Receptor 1 | actives 0.02% (n = 320,000) | TRPV1-expressing cells, Fluo-8 calcium influx, capsaicin EC20 potentiation; host cell line not named in the record; control for the full effect not named in the record | potentiation, % at 8.33 µM | Transient receptor potential cation channel subfamily V member 1 (Homo sapiens), Q8NER1; active means potentiation above 80%; inconclusive means 30% to 80%; inactive means below 30%; note: 0% is about no effect
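Cells expressing TRPV1 were dye-loaded with Fluo-8 and read kinetically: 10 s baseline, 3 min after compound (agonist portion), then 2 min after EC20 capsaicin (allosteric enhancer portion). Calcium-bound dye fluorescence at 480/520 nm.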
TRPML1 agonist: qHTS for Agonists of the Human Mucolipin Transient Receptor Potential 1 (TRPML1); Mucolipin-1 (Homo sapiens), Q9GZU1; TRPML1-expressing cells, Ca2+ dye fluorescence, FDSS; host cell line not named in the record; reference of the full effect not given here; activation, % (no concentration beside the values); actives 0.12% (n = 410,000); in the data active = activation above about 50%; inconclusive = about 30% to 50%; inactive = below about 30%; note: 0% is about no effect; the text of the record puts the active cut at 80%
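Kinetic FDSS Ca2+ read in Tet-induced TRPML1-DL cells (ABD Ca8 dye plus quencher, 45-90 min RT loading): baseline, then compound, then 110 s agonist window; EC80 agonist 54-4 at 4uM final added afterwards for a 110 s antagonist window.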
D2 PAM: Beta-Arrestin HTS for Positive Allosteric Modulators of the Human D2 Dopamine Receptor: Potentiators; potentiation, % (no concentration beside the values); DiscoveRx D2 beta-arrestin cells, luminescence, 90 min; 100% = 57 uM dopamine signal; actives 0.23% (n = 360,000); active = potentiation of 50% or more; inconclusive = 30% to 50%; inactive = 30% or less;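 note: compound concentration not given in the record; tested on top of an EC20 dose of dopamine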
Target sequence (P14416 whole entry, looked up): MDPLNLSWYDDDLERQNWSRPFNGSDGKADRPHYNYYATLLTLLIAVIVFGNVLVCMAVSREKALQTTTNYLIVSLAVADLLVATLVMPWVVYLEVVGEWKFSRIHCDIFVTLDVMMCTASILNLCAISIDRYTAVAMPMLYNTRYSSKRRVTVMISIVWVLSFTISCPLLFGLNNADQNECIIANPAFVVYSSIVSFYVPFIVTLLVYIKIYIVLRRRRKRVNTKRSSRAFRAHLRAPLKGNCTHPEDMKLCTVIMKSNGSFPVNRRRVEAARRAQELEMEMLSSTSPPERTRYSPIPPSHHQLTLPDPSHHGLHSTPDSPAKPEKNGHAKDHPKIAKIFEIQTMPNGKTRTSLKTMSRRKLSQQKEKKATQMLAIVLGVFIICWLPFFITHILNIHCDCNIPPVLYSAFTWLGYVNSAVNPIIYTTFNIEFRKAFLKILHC
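PathHunter D2 cells, attached overnight at 37 deg C, received compound in DMSO plus dopamine at EC20 (50 nM final) for 90 min at 37 deg C. Beta-arrestin recruitment was read as luminescence after 1 h with detection reagent at ambient temperature.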
* marks the source's active call; other numbers are inactive results; ? = inconclusive; . = not tested or not shown. No enrichment for hits; any-hit rate near 0.95%.

SMILES	TRPML1 blocker	CtBP-E1A blk	Six1-Eya2 inh	TRPV1 potentiator	TRPML1 agonist	D2 PAM
CC(C)(C)C(=O)Nc1ccc(-c2cn3cccnc3n2)cc1	-14	11	-17	20	0.0	9
O=[N+]([O-])c1cc(C(F)(F)F)ccc1Cl	7	-6	-5	-19	0.6	-9
Cc1ccc(CNc2ccc3c(c2)nc(C)n3C)cc1	7	-7	-12	-4	-0.2	-9
COc1ccccc1/C=N/NC(=O)c1ccc(Br)cc1	2	-1	4	-11	0.8	-15
CCN(CC(=O)Nc1c(F)cccc1F)C(=O)c1cc(C)nc2ccccc12	0	-2	-2	2	-0.9	10
CCOC(=O)c1[nH]c2ccc(OC)cc2c1NC(=O)N1CCOCC1	-3	-1	7	-14	0.8	-3
O=C(CCN1C(=O)/C(=C/C=C/c2ccccc2)SC1=S)Nc1nc2ccccc2s1	4	4	-3	6	0.0	8
CN(C)C(=O)CN1CCN(C(=O)CCl)CC1	-10	12	9	-1	-0.6	-10
O=C(c1ccc(CS(=O)c2ccccc2Cl)o1)N1CCN(c2ccccn2)CC1 (stereo not drawn)	-6	.	-2	-9	0.7	-6
COc1ccccc1CNC(=O)CCCOc1cc(=O)n(C)c2ccccc12	-14	3	-8	9	0.2	-8
COc1ccc(NC(=O)CN(C)C(=O)c2ccc(NC3CC3)c([N+](=O)[O-])c2)cc1	-8	0	-11	1	2.0	-22
CC(NS(=O)(=O)c1cccc(C(=O)O)c1)C12CC3CC(CC(C3)C1)C2 (stereo not drawn)	-13	7	37	-2	0.6	-3
COCCNC(=O)CSc1nnc2c(Cl)cc(Cl)cn12	-18	4	1	0	0.7	11
CC(C)(C)c1ccc(S(=O)(=O)N2CC(=O)Nc3ccccc32)cc1	-8	8	8	1	0.1	1
COC(=O)c1cc(Cl)c(NS(=O)(=O)c2ccccc2)cc1OC	2	-1	-2	7	-0.8	-5
CC(C)Cc1nnc(NC(=O)c2ccc(N3CCCC3=O)cc2)s1	5	2	-1	12	2.3	2
CCOC(=O)C1(CC2CCCCO2)CCN(C(=O)Nc2ccc3c(c2)OCO3)CC1 (stereo not drawn)	1	0	-2	-13	-0.4	-4
CCCCOc1ccc(-c2nnn(CC(=O)Nc3ncc(CC(=O)OCC)s3)n2)cc1	-9	1	5	.	8.8	1
Cc1ccc2oc(-c3cccc(NC(=O)c4ccc(Br)o4)c3C)nc2c1	-13	-1	3	-5	0.3	-2
COc1ccc(CNC(=O)CN2CCN(C(c3ccccc3)c3ccccc3)CC2)cc1	1	-3	-7	-11	3.5	-14
COc1ccccc1Oc1ccc(S(=O)(=O)NCc2ccccn2)cc1	-9	4	3	-13	1.0	13
CCCCOc1cccc(/C=N/NC(=O)c2csc(C)c2C)c1	-8	5	0	-9	0.0	-7
COCC(=O)N(CCc1ccc(OC)c(OC)c1)Cc1nc2ccccc2c(=O)[nH]1	-2	0	8	10	-0.4	-5
C=CCn1c(C(CC(C)C)CC(C)O)n[nH]c1=S (stereo not drawn)	5	-3	14	-13	1.7	-8
O=C(O)C1C2C=CC(C2)C1C(=O)Nc1cccc(Cl)c1 (stereo not drawn)	-11	14	9	13	0.7	-6

The final 6 compounds of the part above are carried over, then new ones follow:
SMILES	TRPML1 blocker	CtBP-E1A blk	Six1-Eya2 inh	TRPV1 potentiator	TRPML1 agonist	D2 PAM
COc1ccc(CNC(=O)CN2CCN(C(c3ccccc3)c3ccccc3)CC2)cc1	1	-3	-7	-11	3.5	-14
COc1ccccc1Oc1ccc(S(=O)(=O)NCc2ccccn2)cc1	-9	4	3	-13	1.0	13
CCCCOc1cccc(/C=N/NC(=O)c2csc(C)c2C)c1	-8	5	0	-9	0.0	-7
COCC(=O)N(CCc1ccc(OC)c(OC)c1)Cc1nc2ccccc2c(=O)[nH]1	-2	0	8	10	-0.4	-5
C=CCn1c(C(CC(C)C)CC(C)O)n[nH]c1=S (stereo not drawn)	5	-3	14	-13	1.7	-8
O=C(O)C1C2C=CC(C2)C1C(=O)Nc1cccc(Cl)c1 (stereo not drawn)	-11	14	9	13	0.7	-6
COc1ccccc1C(CNC(=O)c1ccc(OCc2c(C)noc2C)cc1)N1CCCC1 (stereo not drawn)	33	-16	1	10	-0.3	3
O=C(COc1ccc(Br)cc1CNCCCN1CCOCC1)Nc1ccccc1	2	13	-7	7	0.3	-17
CCOC(=O)c1oc2cc(O)cc(C)c2c(=O)c1-c1cscn1	-6	-1	0	12	0.7	6
CC(=O)Nc1ccc(-c2ccnc3c2CC(C)(C(=O)NCc2ccc(F)c(F)c2)O3)cc1 (stereo not drawn)	.	1	0	.	-0.8	2
CC(C)N(C(=O)CSc1n[nH]c(=O)n1CCc1ccccc1)C(C)C	25	2	4	-7	0.3	-5
CCc1nnc(NC(=O)CSc2nc3cccnc3n2Cc2ccccc2)s1	-3	1	2	7	0.3	10
CCc1noc(C)c1C(=O)N1CCN(S(=O)(=O)c2cc(C)ccc2C)CC1	-5	3	3	-10	0.1	0
Cc1ccc(-c2ccc(CCC(=O)O)n2NC(=O)c2ccc([N+](=O)[O-])cc2)cc1	4	1	1	-2	0.9	7
C=CCOc1ccccc1C1C2=C(CC(C)(C)CC2=O)Nc2c1c(=O)n(C)c(=O)n2C (stereo not drawn)	89	3	-7	0	-1.3	7
COc1cccc(OCC(O)CN2CCN(C(c3ccccc3)c3ccccc3)CC2)c1 (stereo not drawn)	-14	.	-3	.	1.1	-16
CCOC(=O)c1c(C)[nH]c(C2=NNC(=Nc3ccccc3)SC2)c1C	-10	.	?	-16	-0.6	-4
CCOC(=O)[C@]12CCCC=C1N(Cc1ccco1)C(=O)[C@H](CC(=O)NCCCN1CCCC1=O)C2	.	6	3	.	-0.5	.
CC(C)(C)c1cc(NC(=O)Nc2ccccc2OC(F)(F)F)no1	8	.	10	-4	3.5	-23
Cc1c(OCC(=O)N(C)c2ccccc2)ccc2c3c(c(=O)oc12)CCC3	4	-1	-4	0	1.7	-3
O=C(NCc1ccccc1)c1ccc2c(=O)n(CCCN3CCCC3=O)c(=S)[nH]c2c1	3	6	-5	3	-1.1	-8
O=C(O)c1cccc(COc2cccc3ccccc23)c1	-16	6	7	.	-0.6	13
CCn1c(SCC(=O)N2CCCCC2)nc2c(c1=O)SCC2	11	10	-2	3	2.4	25
CSc1nc(N)c(C#N)c(-c2ccccc2Cl)c1C#N	6	0	8	-1	9.9	-15
N=c1sccn1CC(=O)Nc1ccc(Cl)c(S(=O)(=O)N2CCOCC2)c1	1	-1	-7	-1	-0.3	-8
COc1ccc(NC(=O)N2CCC(Cc3ccccc3)CC2)cc1	-12	?	-23	-3	-0.4	-1
CC(C)(C)c1ccc(N/N=C(\C#N)S(=O)(=O)C(C)(C)C)cc1	-3	-8	-12	-7	-0.1	-5
Cc1nnc(NC(=O)c2ccccc2Oc2ccccc2)s1	-15	-5	9	-5	1.4	3
CC(C)c1ccc(OCc2ccc(C(=O)NN3CCN(C)CC3)o2)cc1	-20	8	2	16	0.1	-5
O=C(NCc1ccco1)Nc1cccc(-c2ccccc2)c1	2	0	-4	.	-1.3	-1
Cc1cc(C)c(C)c(S(=O)(=O)NCc2ccc(C(=O)NCC3CCCO3)cc2)c1C (stereo not drawn)	90	-10	-13	-9	-0.2	-9
SMILES	TRPML1 blocker	CtBP-E1A blk	Six1-Eya2 inh	TRPV1 potentiator	TRPML1 agonist	D2 PAM
CC1CCN(C(=O)CSc2ccc(-c3ccc4c(c3)OCCO4)nn2)CC1	4	-7	-11	-13	-0.3	-6
CN(CC(=O)NCCCc1ccccc1)S(=O)(=O)c1ccc(Br)cc1	-1	5	8	-1	-0.7	-6
CNc1ccccc1-c1nc2ccccc2n(C)c1=O	6	-15	-23	2	-0.5	-12
O=C(CCSCc1ccc(Cl)cc1)NCc1ccco1	16	5	-8	-11	0.5	-3
CCc1nnc(NC(=O)CSCc2cc(=O)n3nc(C)sc3n2)s1	19	4	8	22	0.4	-4
COc1ccccc1NC(=O)N(CCN1CCOCC1)Cc1cc2cc(C)cc(C)c2[nH]c1=O	39	2	2	-2	1.0	-1
O=C(CSc1ncn(-c2ccccc2)n1)c1cccs1	-3	4	1	6	0.8	-21
CSCc1cc(N2CCOCC2)nc(-c2ccccc2)n1	17	?	-4	-16	2.1	-9
C=CCSc1nnc(-c2nnc(SCC=C)n2-c2ccccc2)n1-c1ccccc1	36	2	-11	-16	-0.8	-15
O=C1c2ccccc2C(=O)N1CC1c2ccccc2CCN1C(=O)CN1CCOCC1 (stereo not drawn)	4	.	15	-12	0.2	-5
CCOC(=O)C1=C(C)Nc2sc(C(=O)c3ccc(C)cc3)c(N)c2C1c1ccc(C(=O)OC)cc1 (stereo not drawn)	31	-20	1	-39	1.1	-12
Cc1cccc2nc(CSc3nnc(N)s3)cn12	1	13	-13	10	-0.7	-3
COc1ccc(NC(=O)N(C)[C@H]2C[C@H]3c4[nH]c5ccccc5c4CCN3C[C@H]2[C@H](C)O)cc1	1	-5	-6	.	-0.7	-5
CN(C)CCCn1c(NC(=O)C2CCCCC2)nc2ccccc21	-7	7	-1	-4	-0.2	-28
Nc1ccc(N)c(C(=O)O)c1	12	?	-82*	-7	0.8	11
COCCCNC(=O)CNC(=S)N(Cc1ccccc1F)C1CCCCC1	-5	1	3	-8	0.0	-8
CCc1noc(C)c1C(=O)N1CCCSC1=Nc1ccccc1OC	3	2	3	7	-1.0	-12
O=C(Nc1ccc(O)cc1C(=O)O)c1cccs1	2	?	-26	0	0.5	10
Cc1ccccc1Cc1c(C)nc2c(C(=O)NCc3ccc4c(c3)OCO4)cnn2c1C	-28	14	2	-2	-0.1	-1
CN1CCCN(S(=O)(=O)c2ccccc2)CC1	-26	2	7	5	0.9	-2
c1ccc2cc(OCCN3CCCC3)ccc2c1	-7	-4	0	-9	0.1	-18
CCOc1ccc(Cn2c3ccc(OC)cc3c3nc4ccccc4nc32)cc1	-10	2	5	11	2.2	9
COc1ccccc1N(C(=O)c1snc(C(N)=O)c1N)C(C(=O)NC1CCCCC1)c1cccc(OC)c1OC (stereo not drawn)	20	4	1	-13	1.1	-10
CC(=O)c1cc(CN2CCN(CCC(C)C)C(CCO)C2)cs1 (stereo not drawn)	.	7	0	6	.	-25
COc1ccc(NC(=O)CSc2nc(N)c3cc4c(nc3n2)CC(C)(C)OC4)cc1	3	0	7	13	1.4	2
CCCC(=O)Nc1nnc(CCN2CCCCC2)s1	11	4	5	1	0.8	3
CC(C)C[C@H](NC(=O)N1CC(=O)Nc2ccccc21)C(=O)N[C@@H](Cc1ccccc1)C(=O)O	.	-27	5	22	.	-29

From PubChem
